ALR inh: blocks human ALR sulfhydryl oxidase activity. P55789. purified ALR, DTT oxidation, H2O2 HRP-luminol luminescence. inhibition, % (test concentration not listed). hit rate 3.8% among 290,000. AID 485317;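 active = mean and each replicate at 75% or more; inconclusive = only one of the two met; inactive = neither met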;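 note: stock transfer was 7.5 nL into about 7.5 µL; 0% = neutral wells and 100% = wells with inactivated enzyme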
Target sequence (P55789 whole entry, looked up): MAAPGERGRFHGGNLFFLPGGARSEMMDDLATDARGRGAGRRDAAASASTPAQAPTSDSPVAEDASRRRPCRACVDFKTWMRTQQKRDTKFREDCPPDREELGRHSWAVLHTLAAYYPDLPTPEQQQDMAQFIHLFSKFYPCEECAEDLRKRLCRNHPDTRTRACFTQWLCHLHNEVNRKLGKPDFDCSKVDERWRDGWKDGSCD
T cruzi repl: T. cruzi replication inhibition. T. cruzi beta-gal in NIH3T3, luminescence, 90 h. inhibition, % (concentration not given with the values). hit rate 1.4% among 300,000. AID 1885;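 active = mean inhibition across valid replicates above about 55%, limit read from the data; inconclusive = mean below that limit but half or more replicates reach it; inactive = mean below it, under half of replicates reach it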;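 note: signal also drops with host cell toxicity which is not excluded here; 0% = plate median of DMSO wells and 100% = zero luminescence signal; higher percent means less beta-gal luminescence so fewer parasites; stock transfer was 50 nL into about 50 µL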
Beta cell apopt: beta cell apoptosis inhibition; INS-1E cytokine-induced death, ATP luminescence, 48 h; percent of positive-control rescue, neutral wells zero; protection from apoptosis, % (concentration not given with the values); hit rate 0.8% among 300,000;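 active = all replicates at 75% or more, or half of them and the mean; inconclusive = half reach 75% but not the mean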;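 note: 0% = cytokine-treated negative control wells and 100% = positive control rescue; higher means more ATP so stronger rescue from cytokine killing; wells of about 40 µL received 100 nL stock; the first replicate is given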
Calb FLC: C. albicans growth modulation with fluconazole. C. albicans CaCi-2 (fluconazole-resistant clinical isolate) + fluconazole, Alamar Blue growth, 48 h. AID 1979. hit rate 0.57% among 300,000. growth inhibition, % (test concentration not listed);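 active = most replicates above 75%; inconclusive = exactly half above 75%; inactive = most below 75%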;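 note: all wells also contain fluconazole at 8 µg/ml as a sub-toxic cotreatment; 0% = median of DMSO wells and 100% = median of geldanamycin control wells; wells of about 8 µL received 7.5 nL stock; the first replicate is given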
MLL AF4-AF9 inh: blocks AF4 peptide binding to human AF9; inhibition, % at 10 µM; hit rate 0.47% among 350,000; AID 651704; AlphaScreen, biotin-AF4 peptide binding to FLAG-AF9; P42568;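 active = every replicate reaching a set inhibition limit, whatever the replicate mean, cut at about 25% in these data; inconclusive = mean inhibition reaches that limit but some replicates miss it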;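 note: 0% = plate neutral control median and 100% = total signal loss; the record names both 10 and 1 µM as test concentration; the first replicate is given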
Target sequence (P42568 whole entry, looked up): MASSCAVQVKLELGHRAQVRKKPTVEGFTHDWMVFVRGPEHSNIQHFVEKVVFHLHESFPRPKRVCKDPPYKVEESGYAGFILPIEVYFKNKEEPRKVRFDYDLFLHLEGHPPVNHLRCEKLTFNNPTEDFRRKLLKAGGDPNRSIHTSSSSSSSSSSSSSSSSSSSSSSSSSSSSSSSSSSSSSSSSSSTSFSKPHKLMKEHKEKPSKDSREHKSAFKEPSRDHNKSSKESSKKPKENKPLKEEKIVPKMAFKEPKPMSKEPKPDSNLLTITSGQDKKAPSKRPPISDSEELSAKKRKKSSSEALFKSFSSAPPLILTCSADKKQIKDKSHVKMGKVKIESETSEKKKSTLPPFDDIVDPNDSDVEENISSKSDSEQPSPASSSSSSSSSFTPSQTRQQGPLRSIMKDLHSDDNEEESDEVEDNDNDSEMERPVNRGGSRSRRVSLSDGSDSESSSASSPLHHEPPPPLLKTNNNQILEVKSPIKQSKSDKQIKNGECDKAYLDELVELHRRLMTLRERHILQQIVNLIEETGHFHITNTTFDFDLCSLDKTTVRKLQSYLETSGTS
rRNA inh HTS: inhibits bacterial ribosomal RNA function over humanized ribosomes; GFP signal change (wild-type ribosome), % (test concentration not listed); hit rate 1.6% among 350,000; E. coli WT GFP vs humanized-ribosome RFP mutants, fluorescence, 24 h; active compounds read low; DMSO median 0, no signal -100;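 active = significant combined selectivity score with lowered wild-type GFP, culture density cut under 30%, mutant RFP and density less affected; inactive = any of these conditions unmet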; note: one replicate is shown; some compounds called inactive have numbers as strong as hits
FGF22 binding: shifts melting point of recombinant human FGF22; calls only at 9.99 µM; hit rate 1.5% among 340,000; recombinant FGF22 thermal shift, SYPRO orange fluorescence; percent of sucrose octasulfate shift, DMSO zero; Q9HCT0; AID 651658;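 active = melting point raised past a set limit in the mean and every replicate; inconclusive = no clear call; three in four hits are not shown here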
Target sequence (Q9HCT0 whole entry, looked up): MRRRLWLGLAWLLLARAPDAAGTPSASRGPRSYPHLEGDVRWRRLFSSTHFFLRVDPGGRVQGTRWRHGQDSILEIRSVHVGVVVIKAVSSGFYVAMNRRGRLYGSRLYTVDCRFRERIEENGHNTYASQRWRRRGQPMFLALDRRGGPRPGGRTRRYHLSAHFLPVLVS
RanGTP-Impb inh: inhibitors of RanGTP-importin-beta interaction, primary screen, biochemical, FRET, CFP-Ran, YFP-importin-beta, homogeneous. AID 2216. inhibition, % (concentration not given with the values). hit rate 1.1% among 300,000. cell-free CFP-Ran/YFP-importin-beta FRET ratio;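 active = most replicates above 15%; inconclusive = exactly half above 15%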;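 note: 0% = DMSO wells and 100% = Ran loaded with GDP instead of GTP; wells of about 40 µL received 100 nL stock; the first replicate is given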
rRNA inh HTS OD600: further read-out of rRNA inh HTS, marked with its call; OD600 change, %; measured here: OD600 growth;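 optical density of the mix in the first replicate; 0 = DMSO median and -100 = no signal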
rRNA inh HTS RFP: recorded beside rRNA inh HTS, whose call it bears; RFP signal change, %; measured here: RFP humanized mutant strains;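 first replicate; 0 = DMSO median and -100 = no signal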
The depositor's hits bear a star; i = inactive; ? = inconclusive; · = not tested or not shown.

Results follow in this order: ALR inh, T cruzi repl, Beta cell apopt, Calb FLC, MLL AF4-AF9 inh, rRNA inh HTS, rRNA inh HTS OD600, rRNA inh HTS RFP, FGF22 binding, RanGTP-Impb inh
1) CC(C)CC1=NN(C(=O)c2ccncc2)C(O)(C(F)(F)F)C1 (stereo not drawn)
  -1, -11, -5, 4, ·, ·, ·, ·, ·, 6.1
2) CC(C)N1CCN(Cc2ccc(-c3ccccc3)cc2)CC1CCO (stereo not drawn)
  -1, 35, ·, -14, -2.7, 13, 6, 7.1, i, -1.4
3) CCOc1ccc(NC(=O)CSc2nnc(C3CC3)n2C)cc1S(=O)(=O)N1CCCCC1
  9, ·, -1, ·, 1.8, 2, 1, 4.3, i, ·
4) S=C1NC2(CCCCC2)Cc2ccccc21
  -1, -17, -2, 16, ·, ·, ·, ·, ·, -3.0
5) Cc1cc(C)n(CCN(C)C(=O)C2CCC(=O)N(CCc3cccc(F)c3)C2)n1 (stereo not drawn)
  -28, -6, -6, 2, -4.2, 8, 8, 3.4, i, 6.2
6) Cc1cccc(NC(=O)CSc2nnc(CNC(=O)c3ccco3)n2C)c1
  -9, 4, ·, 9, 0.3, 7, 17, -0.9, i, 0.7
7) CC(C)CCN1CCN(Cc2cccn2-c2ccc(Cl)cn2)CC1CCO (stereo not drawn)
  4, 19, -6, -38, 5.8, 7, 10, 0.4, i, -0.1
8) COC(=O)/C=C(\Oc1ccccc1)C1(O)CCCCC1
  4, -17, 1, -2, ·, 1, 1, 4.1, i, -3.6
9) C/C(CC(=O)Nc1ccc(N(C)C)cc1)=N\NC(=O)c1ccc(Cl)cc1Cl
  61, 11, ·, -4, 9.1, -4, 2, -0.6, i, -3.6
10) O=C1c2ccccc2N2C(=O)c3ccccc3[C@H]2N1c1ccccc1
  ·, 0, -2, -4, ·, ·, ·, ·, ·, -0.7
11) Cc1[nH]c2ccccc2c1C(=O)C(=O)Nc1ccc2c(c1)OCCO2
  42, 5, -1, -12, 7.6, -14, -6, 3.3, i, 0.4
12) CSc1cccc(NC(=O)C2CCN(S(=O)(=O)c3cnc[nH]3)CC2)c1
  0, -13, -15, -10, -2.0, 2, 7, 1.8, i, -0.5
13) O=C(Nc1cccc(-c2nc3ncccc3o2)c1)c1cc2ccccc2o1
  -2, -9, 2, 50, ·, ·, ·, ·, ·, -1.8
14) O=C(CN(C(=O)c1csnn1)c1ccccc1F)NC1CCCCC1
  -3, 1, 2, -2, -1.2, 3, 5, -0.1, i, 2.5
15) CC1Cc2ccccc2N1C(=O)Cn1c(=O)oc2cc(S(=O)(=O)NC3CCCC3)ccc21 (stereo not drawn)
  3, 2, 2, 10, 0.1, -1, -4, 9.9, i, -2.1
16) O=S(=O)(/N=C(/Nc1cccnc1Cl)c1ccccc1)c1ccccc1
  3, ·, -7, ·, -3.0, 1, 5, -1.7, i, ·
17) CCOc1cc(S(=O)(=O)N2CCN(c3ccc(F)cc3)CC2)c(OCC)cc1-n1cnnn1
  27, 53, -4, -2, ·, ·, ·, ·, ·, -0.3
18) Cc1ccc2c(=O)n3c(nc2c1)C(CC(C)C)NC(=O)c1ccc(Cl)cc1-3 (stereo not drawn)
  -3, ·, 9, ·, -30, 4, -1, 9.3, i, ·
19) COc1ccc(F)c(CN2CCCC(CNS(=O)(=O)c3cccc4cccnc34)C2)c1 (stereo not drawn)
  -5, 28, -1, -9, 3.8, 10, 2, 12, i, -3.7
20) CC(=O)c1ccccc1OCCOc1ccccc1C(C)=O
  -3, -2, ·, 6, 2.3, 9, 9, 3.7, i, -0.7
21) CC(Sc1nnc(Cn2c(=O)sc3ccccc32)n1C)c1ccccc1 (stereo not drawn)
  ·, 9, 0, 4, 0.8, 0, -5, 2.0, i, -0.5
22) CC(=O)N1CC(C)Sc2ccc(S(=O)(=O)N3CCCCC3)cc21 (stereo not drawn)
  1, -3, -5, 2, 3.4, -6, -9, 2.5, i, -0.4
23) O=C(Nc1ccccc1C(=O)NCc1ccccc1)c1ccccc1Br
  -4, 11, -3, -2, ·, ·, ·, ·, ·, -0.9
24) CCNC(=O)COc1cccc(C(=O)NCc2ccccc2)c1
  -6, 0, -7, 3, ·, ·, ·, ·, ·, -2.2
25) CC(C)(C)c1ccc(-c2nc(O)c(CC(=O)O)s2)cc1
  -26, -14, -3, -2, ·, ·, ·, ·, ·, -1.4
26) Cc1ccc(C(C(=O)NC2CCCC2)N(C(=O)Cc2cccs2)c2ccc3c(c2)OCCO3)cc1 (stereo not drawn)
  -1, 13, 3, -6, -6.7, 9, 18, 15, i, -1.2
27) O=C(CN1C(=O)c2cccc3cccc(c23)C1=O)N1CCN(Cc2ccc3c(c2)OCO3)CC1
  -8, -5, -6, -29, 8.8, -11, -11, 20, i, -4.8
28) COc1ccc(-n2c(SCCC(=O)O)nnc2-c2ccncc2)cc1
  ·, -11, 3, 24, ·, ·, ·, ·, ·, -1.9
29) CCCN(CC(=O)Nc1ccc(NC(C)=O)cc1)CC(=O)Nc1ccc(F)c(F)c1F
  -9, 1, -3, 3, 1.8, 0, -2, -2.6, i, ?
30) CCOc1ccc(N2C(=O)CC(n3nc(C)cc3C)C2=O)cc1 (stereo not drawn)
  1, 4, -2, -9, ·, ·, ·, ·, ·, -1.9

The results go on.
Results follow in this order: ALR inh, T cruzi repl, Beta cell apopt, Calb FLC, MLL AF4-AF9 inh, rRNA inh HTS, rRNA inh HTS OD600, rRNA inh HTS RFP, FGF22 binding, RanGTP-Impb inh
31) CC1=C(C)CC(C(=O)NCCc2ccccc2)C(C(=O)O)C1 (stereo not drawn)
  -6, -3, -1, -21, ·, ·, ·, ·, ·, 1.1
32) COc1cccc(CNCc2ccccc2Br)c1OC
  -3, -1, -14, 3, -3.6, 0, -6, -5.3, i, 2.1
33) CCc1ccc(S(=O)(=O)N2CCN(C(=O)c3cccnc3)CC2)cc1
  -3, -10, ·, -5, -9.8, 9, 6, -2.3, i, -0.4
34) C=CCC(NC(C)c1ccccc1)c1ccco1 (stereo not drawn)
  -1, 3, 0, 3, ·, ·, ·, ·, ·, -5.6
35) COc1cc(/C=N/Nc2nncn2/N=C/c2ccc(O)c(OC)c2)ccc1O
  99*, -21, 48, -4, -1.2, -13, -3, -4.1, ·, -0.6
36) COc1ccccc1CN1CC(C(=O)N2CCC(C(=O)c3ccccc3)CC2)CCC1=O (stereo not drawn)
  -6, 6, 4, -4, -0.4, 3, 1, 0.9, i, -2.4
37) O=C(c1nc2ccccn2c1CNCC1OCCc2ccccc21)N1CCOCC1 (stereo not drawn)
  -2, 6, -7, -12, 1.1, 9, 5, 0.7, i, -0.8
38) COc1ccc(OC)c(S(=O)(=O)Nc2c(F)cccc2F)c1
  -9, -3, -6, 1, ·, ·, ·, ·, ·, 4.1
39) O=C(CNS(=O)(=O)c1ccccc1)N1CCCC1
  2, -7, 0, -7, -0.8, 23, 13, 1.6, i, -0.3
40) Cc1ccc(CNC(=O)CCn2ccc3cc(S(=O)(=O)N4CCCC4)ccc32)cc1
  -10, 5, -7, -16, -3.8, -4, -15, -1.4, i, -1.9
41) CCC(NC(=O)c1cccc(Cn2cc([N+](=O)[O-])cn2)c1)c1ccc(C(C)C)cc1 (stereo not drawn)
  -4, 48, 2, 15, ·, ·, ·, ·, ·, 0.9
42) O=C(NC1=NCCS1)c1cccc(NC(=O)c2ccco2)c1
  ·, -1, -3, 7, ·, ·, ·, ·, ·, -3.8
43) CCC(CO)n1c(SCc2cc(=O)oc3cc(C)ccc23)nc2ccccc2c1=O (stereo not drawn)
  99*, -5, -1, 3, ·, ·, ·, ·, ·, -4.7
44) CC(=O)OC(C(=O)NC1CCCCC1)c1ccc(Cl)c(Cl)c1 (stereo not drawn)
  7, -3, 0, -34, 0.2, 11, 17, 1.0, i, -1.6
45) O=c1[nH]c(-c2ccccc2Cl)nc2c1sc(=S)n2-c1ccccc1
  ·, -17, ·, 74, -3.1, -29, -28, 0.2, ·, ?
46) C/C=C/COc1nc2c(c(=O)n(C)c(=O)n2C)n1C
  1, 4, 5, 6, ·, ·, ·, ·, ·, -1.7
47) CC(=O)N1CCC2(CC1)CC(=O)c1cc(OCC(=O)N3CCCC3)ccc1O2
  -3, 10, -6, -11, -0.4, 10, 5, -1.3, i, 1.6
48) O=C(NN1C(=O)c2ccccc2C1=O)c1ccncc1
  -7, -2, -3, 3, -3.0, 18, 12, 5.3, ·, -0.4
49) O=C(Nc1nc2nc(-c3ccccc3)cc(-c3ccccc3)n2n1)c1ccco1
  2, 36, 5, -1, ·, ·, ·, ·, ·, 1.2
50) O=C(CCC(=O)N/N=C/c1c[nH]c2ccccc12)NCc1ccccc1
  37, -8, 1, -1, ·, ·, ·, ·, ·, -0.1
51) CCn1c(NCc2ccc(OC)cc2)nc2ccccc21
  26, -6, -1, -6, 1.2, -3, 9, 5.5, i, 1.9
52) N#Cc1ccc(NC(=O)CSc2cn[nH]n2)cc1
  -1, 0, -9, -4, -0.1, 6, 1, -1.8, i, 2.3
53) Cc1ccc(/C=N/NC(=O)c2ccccc2OCc2cccc(Br)c2)o1
  2, 32, 4, -27, 4.3, -48, -72, -9.4, i, -3.1
54) CCn1c(=O)cc(SCC(=O)Nc2ccc(OC)c(OC)c2)c2ccccc21
  ·, 2, 1, -11, ·, ·, ·, ·, ·, -4.9
55) CCOC(=O)c1c[nH]c2ccc3ccccc3c2c1=O
  -3, -4, 0, 9, 1.7, -5, 3, 1.1, i, 0.8
56) CCN(CC)S(=O)(=O)c1cccc(-c2nnc(SCCCC(=O)c3ccc(F)cc3)o2)c1
  0, 60*, 17, 11, ·, ·, ·, ·, ·, -2.1

Reformatted tab-delimited: ten of the compounds above
nr	Structure	ALR inh	T cruzi repl	Beta cell apopt	Calb FLC	MLL AF4-AF9 inh	rRNA inh HTS	rRNA inh HTS OD600	rRNA inh HTS RFP	FGF22 binding	RanGTP-Impb inh
45	O=c1[nH]c(-c2ccccc2Cl)nc2c1sc(=S)n2-c1ccccc1	·	-17	·	74	-3.1	-29	-28	0.2	·	?
46	C/C=C/COc1nc2c(c(=O)n(C)c(=O)n2C)n1C	1	4	5	6	·	·	·	·	·	-1.7
47	CC(=O)N1CCC2(CC1)CC(=O)c1cc(OCC(=O)N3CCCC3)ccc1O2	-3	10	-6	-11	-0.4	10	5	-1.3	i	1.6
48	O=C(NN1C(=O)c2ccccc2C1=O)c1ccncc1	-7	-2	-3	3	-3.0	18	12	5.3	·	-0.4
49	O=C(Nc1nc2nc(-c3ccccc3)cc(-c3ccccc3)n2n1)c1ccco1	2	36	5	-1	·	·	·	·	·	1.2
50	O=C(CCC(=O)N/N=C/c1c[nH]c2ccccc12)NCc1ccccc1	37	-8	1	-1	·	·	·	·	·	-0.1
51	CCn1c(NCc2ccc(OC)cc2)nc2ccccc21	26	-6	-1	-6	1.2	-3	9	5.5	i	1.9
52	N#Cc1ccc(NC(=O)CSc2cn[nH]n2)cc1	-1	0	-9	-4	-0.1	6	1	-1.8	i	2.3
53	Cc1ccc(/C=N/NC(=O)c2ccccc2OCc2cccc(Br)c2)o1	2	32	4	-27	4.3	-48	-72	-9.4	i	-3.1
54	CCn1c(=O)cc(SCC(=O)Nc2ccc(OC)c(OC)c2)c2ccccc21	·	2	1	-11	·	·	·	·	·	-4.9

Bioassay records from PubChem BioAssay.

These rows are one share of the data; rates above refer to the full screens.
